HPGD inh – HPGD (human) dehydrogenase inhibition | P15428 | purified HPGD, NADH fluorescence kinetic, PGE2 substrate | Potency, µM, for the others: top-dose activity change, negative = inhibition, actives largely listed as inhibitors | hit rate 4.3% among 150,000 | AID 894; active = well fitted inhibition curve with a large enough effect (not every such curve was filed as active); inconclusive = small, poorly fitted or top-dose-only effect, or another doubt; inactive = no such curve, though single readings can be large or run the other way;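 note: top concentration of the series not given in the record; plate controls included wells without enzyme; inactives centre near -10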
Target sequence (P15428 whole entry, looked up): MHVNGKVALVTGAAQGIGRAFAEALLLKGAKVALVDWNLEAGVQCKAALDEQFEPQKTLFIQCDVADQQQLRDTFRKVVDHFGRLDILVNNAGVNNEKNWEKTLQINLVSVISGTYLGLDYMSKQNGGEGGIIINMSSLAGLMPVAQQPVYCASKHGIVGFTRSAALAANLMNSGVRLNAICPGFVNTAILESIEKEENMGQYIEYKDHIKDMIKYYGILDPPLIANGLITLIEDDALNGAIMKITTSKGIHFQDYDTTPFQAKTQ
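20 nM HPGD preincubated 15 min at room temperature with compound in 50 mM Tris-HCl pH 8, 0.01% Tween 20. Started with 1 mM NAD+ and 30 uM prostaglandin E2; NADH fluorescence (360/450 nm) read 5 times over 30-s intervals, last minus first.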
The depositor's hits bear a star; ? = inconclusive. % is set by controls: 0 for no effect and ±100 for the full control effect; potency is the fitted concentration of half-maximal effect.

HPGD inh	Molecule
?	O=C(CSCc1cccc(Cl)c1)N/N=C/c1ccc(OCC(=O)N2CCCCC2)cc1
?	C/C=C(/C)C(=O)O[C@@H]1c2c(ccc3ccc(=O)oc23)O[C@@H]1C(C)(C)OC(=O)/C(C)=C\C
-9%	O=S(=O)(c1ccc(-c2nnc(SCc3ccccc3)o2)cc1)N1CCCC1
?	COCCN(Cc1cc2ccccc2[nH]c1=O)C(=O)c1ccccc1OC
?	COc1ccc(C(=O)NNC(=O)C(Cc2ccc(O)cc2)NC(=O)c2ccccc2NC(=O)c2ccc(OC)cc2)cc1 (stereo not given)
16µM*	O=C(CCc1c[nH]c2ccccc12)NC1CC1
?	CCOC(=O)c1cc2c(s1)-c1ccccc1CC2
-6%	CCn1c(CNC(=O)COC)nc2ccccc21
-27%	Cc1ccc(OCc2nnc(SCC(=O)c3ccccc3)n2-c2ccccc2)cc1
?	O=C(CN1C(=O)NC2(CCCCCC2)C1=O)NCc1cccs1
-13%	Cc1cc(C)c(C(N)=O)c(Nc2ccc3c(c2)OCCO3)n1
?	O=C1NC(=O)c2cc(Nc3ccccc3)c(Nc3ccccc3)cc21
-5%	CCCCCOCC(O)CCC(=O)NN (stereo not given)
-14%	CCc1nnc(NC(=O)CSc2nnc(-c3cc4ccccc4cc3O)n2CC)s1
-15%	Cc1nc(NC(=O)/C=C/c2ccco2)sc1C
-22%	Cc1cc(C(=O)Cn2nc(C(=O)O)c3ccccc3c2=O)c(C)n1-c1ccccc1
-6%	COc1ccc(-c2nnc(SCC#N)o2)cc1
-15%	Cc1ccc(S(=O)(=O)NCCNc2ccc([N+](=O)[O-])cc2C(F)(F)F)cc1
-18%	CCc1ccc(-c2nc(NC(=S)NC(=O)c3cccs3)sc2C)cc1
-13%	Cc1ccc(C)c(NC(=S)NC(NC(=O)Cc2ccccc2)C(Cl)(Cl)Cl)c1 (stereo not given)
-8%	O=[N+]([O-])c1ccc(C2Nc3cccc4cccc(c34)N2)cc1
-5%	COc1ccc(NC(=O)CSc2nc3ccccc3c(=O)n2CCC(=O)N2CCCCC2)cc1
-5%	COc1cc(C(=O)Oc2ccccc2/C=N/NC(=O)c2ccc(C)c(Cl)c2)cc(OC)c1OC
-11%	Cc1ccc(N2C(N)=NC(N)=NC23CCCC3)c(C)c1
-14%	C=CCc1cc(C=O)cc(OC)c1OCc1c(Cl)cccc1Cl
-27%	COCCn1c(-c2cccc([N+](=O)[O-])c2)nc2c1c(=O)[nH]c(=O)n2Cc1ccccc1
-9%	c1ccc(N2CCN(Cc3nc4ccccc4[nH]3)CC2)nc1
-5%	Cn1c(O)c(C=NC(CC(N)=O)C(=O)O)c(=O)n(C)c1=O (stereo not given)
-15%	O=S(=O)(c1ccc(Oc2ccc(Br)cc2F)nc1)N1CCCCC1
-10%	O=C(/C=C/c1ccc2c(c1)OCO2)c1ccccc1
-15%	Cc1ccc(-c2nnc(N3CCN(C(=O)c4ccco4)CC3)c3ccccc23)cc1
-5%	Cc1c(Cl)cccc1-n1ccnc1SCC(=O)O
-16%	O=C(Nc1cccc(Cl)c1N1CCCCC1)c1ccc2c(c1)OCCO2
-10%	O=c1c2ccccc2nc(CSc2nnnn2-c2ccccc2)n1-c1ccccc1Cl
10µM*	Cc1cccc(-n2c(-c3csc(C)c3C)n[nH]c2=S)c1
-9%	CCN1CCN(CC(=O)Nc2cc(C)c(C)cc2[N+](=O)[O-])CC1
-13%	Cc1noc(C)c1C(=O)OCC(=O)c1ccc[nH]1
-1%	CC(C)Oc1ccc(CN=C(N)N=C(N)N)cc1Cl
-22%	CCc1ccc(OCCCC(=O)NCc2ccccc2)cc1
-16%	COc1ccc(N2CCN(C(=O)CSc3nnc(-c4cc5ccccc5cc4O)n3C)CC2)cc1
?	Cc1cc(=O)[nH]c2cc(O)ccc12
?	CCCOc1c(Br)cc(/C=N/O)cc1OC
-5%	COc1ccc(NC(=O)c2ccc(COCC(F)(F)F)cc2)cc1OC
?	COCCOC(=O)C1=C(C)NC2=C(C(=O)CC(C)(C)C2)C1c1cccnc1 (stereo not given)
?	COc1cc(OC)c2c(-c3cccc(-c4ccc(CO)cc4)c3)cc(=O)oc2c1
1%	CC1=CC(C)C2(CO)COC(c3ccccc3O)C1C2C (stereo not given)
-9%	COc1ccccc1Oc1ccc2c(c1)C(=O)N(c1ccccc1)C2=O
-7%	Cc1ccc(S(=O)(=O)N2CCN(C(=O)CN3CCOCC3)C2C(C)C)cc1 (stereo not given)
-10%	CC(=O)Nc1cccc(OCC(O)Cn2cnc3ccccc32)c1 (stereo not given)
-10%	CCC(C(=O)OCC(=O)Nc1c(Cl)cccc1Cl)c1ccccc1 (stereo not given)
-21%	COc1ccc(C(=O)/C=C/c2ccc(OC)c(CN3CCOCC3)c2)cc1
-16%	O=C(/C=C/c1ccc(Br)cc1)c1ccc(NC(=O)c2ccco2)cc1
-5%	COc1cc(O)c(C)c(O)c1
-19%	COc1ccc(NC(=O)COC(=O)c2ccc(OCc3ccccc3Cl)c(OC)c2)c(OC)c1
?	Cc1cccc(-n2c(N)c(C(=O)NCCN3CCOCC3)c3nc4ccccc4nc32)c1
-5%	N#Cc1c2n(c3c(=O)n(Cc4ccccc4Cl)cnc13)CCCC2
-9%	O=S(=O)(c1cccc2cccnc12)N1CCN(Cc2ccc3c(c2)OCO3)CC1
-22%	CCN(/C=N/c1sc2c(c1C#N)CCCCC2)CC
-13%	COCCn1c(=NC(=O)CN2C(=O)CCC2=O)sc2cc(S(N)(=O)=O)ccc21
-4%	Cc1ccc(NC(=O)c2sc(Cl)nc2-c2ccccc2)cc1

(more compounds)
HPGD inh	Molecule
-7%	COc1ccc(OCCCC(=O)Nc2cccc([N+](=O)[O-])c2)cc1
-28%	CCc1nnc(NC(=O)C2CCN(c3nccc(C)n3)CC2)s1
-4%	CC(C)c1cc(C(=O)O)n[nH]1
-4%	COC(=O)c1c(NC(=O)CSc2nnc(Cn3nnc4ccccc43)n2C)sc(C)c1C
-14%	CC(=O)Oc1ccc(C(=O)Nc2ccccc2C(=O)NCC(C)C)cc1
-3%	COc1ccc(NC(=O)C(NC(C)=O)C(=O)NCc2ccccc2OC)cc1 (stereo not given)
-11%	COc1ccc(CCNC(=O)c2ccc(CNS(=O)(=O)c3cc(C)ccc3C)cc2)cc1OC
16µM*	C=CCSc1n[nH]c(-c2ccc(OCCCC)cc2)n1
-8%	Cc1ccc(NC(=O)NC2(C(=O)NCc3ccco3)CCCCC2)cc1
-10%	Cc1cccc2cc(C#N)c(SCC(=O)NCc3cccs3)nc12
-15%	O=C(Nc1ccccc1Cc1ccccc1)C1CC(=O)N(c2ccc3c(c2)OCCO3)C1 (stereo not given)
-1%	COCCCn1nnnc1SCC(=O)N1CCCC1
-7%	Cc1ccccc1C(=O)NC1CCN(C(=O)N2CCOCC2)CC1
-4%	N#Cc1nc(COc2cccc(Cl)c2)oc1N1CCN(c2ccccc2)CC1
1%	COC(=O)c1[nH]c2ccc(F)cc2c1NS(=O)(=O)c1ccc(OC)cc1OC
-14%	COC(=O)c1ccc(C)c(NC(=O)CCSc2ccc(C)cc2)c1
-3%	COC(=O)c1c(NC(=O)/C=C/c2ccco2)sc2c1CCC2
-12%	Cc1ccc(C)n1NC(=O)c1cccc(Cl)c1
-9%	O=C1c2cccc3cccc(c23)N1CN1CCN(c2ccccn2)CC1
-8%	CCOc1ccc(NS(=O)(=O)c2ccc3c(c2)CCN3C(=O)CCC(=O)O)cc1
-11%	CCCCn1c(SCC(=O)NC(C)(C)C)nnc1-c1ccco1
-4%	CC(=O)Nc1cc(C(=O)N2CCCC2)ccc1Sc1ccc(C)cc1
-10%	O=C(CN(c1cccc([N+](=O)[O-])c1)S(=O)(=O)c1ccccc1)NCc1ccccc1
-7%	O=C(c1nc2ccccc2s1)N1CCN(c2ccccn2)CC1
-6%	O=C(COC(=O)C1(c2cccc(F)c2)CCCC1)NCc1ccc2c(c1)OCO2
-6%	O=C(Oc1ccc(OC(=O)N2CCCCC2)cc1)c1ccccc1
7.9µM*	CC(Cc1cccs1)NC(=O)c1cccc(Cl)c1 (stereo not given)
-5%	COCCNC(=O)C(c1ccc(C)o1)N(Cc1ccc(F)cc1)C(=O)Cn1nnc2ccccc21 (stereo not given)
-12%	C[n+]1ccc(C(=O)N/N=C/c2ccco2)cc1
-30%	CCN(CC)c1ccc(/C=C(/C#N)c2nc3ccccc3[nH]2)c(OC(C)C)c1
?	Cc1ccc(-c2cc(-c3nnc(SCC(=O)N(C)CCC#N)n3N)c3ccccc3n2)cc1
1%	COc1ccc(OCCCC(=O)Nc2cccc(SC)c2)cc1
-6%	CCCC(=O)Nc1ccccc1N1CCN(C(=O)C(C)C)CC1
-13%	COc1ccc([C@H]2[C@H](C(=O)C(C)(C)C)N3N=Cc4ccccc4C3[C@]23N=C(c2ccccc2)OC3=O)cc1OC (stereo not given in full)
5%	O=C(NC(=S)Nc1ncccn1)c1ccccc1Cl
8%	CC(=O)Nc1ccc(NC(=O)CNS(=O)(=O)c2ccc(C)cc2)cc1
3.5µM*	CCN(CC)c1ccc(NC(=O)COc2ccccc2C#N)cc1S(=O)(=O)Nc1ccccc1OC
-10%	CCCC(=O)Nc1ccc(C(=O)N/N=C2\CC(=O)CC(C)(C)C2)cc1
-5%	O=C(Cn1c(=O)n(Cc2ccc3c(c2)OCO3)c(=O)c2ccccc21)N1CCCc2ccccc21
-12%	O=C(c1cc([N+](=O)[O-])ccc1Cl)N1CCN(c2ccccc2)CC1

13 structures from above, sorted by heavy-atom count, smallest number first:
HPGD inh	Molecule
-12%	C[n+]1ccc(C(=O)N/N=C/c2ccco2)cc1
7.9µM*	CC(Cc1cccs1)NC(=O)c1cccc(Cl)c1 (stereo not given)
5%	O=C(NC(=S)Nc1ncccn1)c1ccccc1Cl
1%	COc1ccc(OCCCC(=O)Nc2cccc(SC)c2)cc1
-12%	O=C(c1cc([N+](=O)[O-])ccc1Cl)N1CCN(c2ccccc2)CC1
-4%	CC(=O)Nc1cc(C(=O)N2CCCC2)ccc1Sc1ccc(C)cc1
-30%	CCN(CC)c1ccc(/C=C(/C#N)c2nc3ccccc3[nH]2)c(OC(C)C)c1
-6%	O=C(COC(=O)C1(c2cccc(F)c2)CCCC1)NCc1ccc2c(c1)OCO2
-10%	O=C(CN(c1cccc([N+](=O)[O-])c1)S(=O)(=O)c1ccccc1)NCc1ccccc1
?	Cc1ccc(-c2cc(-c3nnc(SCC(=O)N(C)CCC#N)n3N)c3ccccc3n2)cc1
-5%	COCCNC(=O)C(c1ccc(C)o1)N(Cc1ccc(F)cc1)C(=O)Cn1nnc2ccccc21 (stereo not given)
3.5µM*	CCN(CC)c1ccc(NC(=O)COc2ccccc2C#N)cc1S(=O)(=O)Nc1ccccc1OC
-13%	COc1ccc([C@H]2[C@H](C(=O)C(C)(C)C)N3N=Cc4ccccc4C3[C@]23N=C(c2ccccc2)OC3=O)cc1OC (stereo not given in full)

(listing goes on)
HPGD inh	Molecule
-21%	COc1cc(/C=N/NC(=O)CCc2c(C)n[nH]c2C)ccc1O
-6%	CCC(=O)NCCn1ccc2ccccc21
-5%	CC(/C=C/c1ccccc1)NC(N)=O (stereo not given)
?	COC(=O)c1oc2c(c1C)C1(CCC2)SCCS1
-18%	N#CCCn1cc(/C=N/O)c(-c2ccc(Cl)cc2)n1
?	Cc1c(C(=O)Nc2ccc(F)cc2)oc2ccc(S(=O)(=O)N3CCCC3)cc12
?	CCn1c(=N)n(CC(=O)C(C)(C)C)c2ccccc21
-9%	Cc1ccc2cc(C(c3nnnn3Cc3ccccc3)N3CCc4ccccc43)c(=O)[nH]c2c1C (stereo not given)
-11%	CCNC(=S)NCC
-6%	N#Cc1cccc(C(c2nnnn2C2CCCC2)N2CCCCCC2)c1 (stereo not given)
-4%	CC(C)=C1C2CCC1C1C(=O)N(CCc3ccccc3)C(=O)C21 (stereo not given)
-19%	O=C(C1CCN(S(=O)(=O)N2CCCC2)CC1)N1CCCCC1
-8%	CCC(C)N(C(=O)Cn1nnc2ccccc21)C(C(=O)Nc1ccc(F)cc1)c1cccc(OC)c1 (stereo not given)
-14%	CCN1C(=O)N/C(=C/c2cc(C)n(Cc3ccccc3)c2C)C1=O
-3%	CCCn1c(SCC(=O)N2CCN(c3ccccc3)CC2)nc2ccccc2c1=O
?	Cc1c(C)c2ccc(OCc3ccc(C(=O)O)o3)c(C)c2oc1=O
?	COc1ccc(Cc2nc3ccc(S(N)(=O)=O)cc3[nH]2)cc1OC
-16%	CCC(=O)NC1(C(F)(F)F)C(=O)Nc2c1c(=O)[nH]c(=O)n2Cc1ccco1 (stereo not given)
8.9µM*	N#CCc1ccccc1[N+](=O)[O-]
-13%	Cn1c(=O)[nH]c(=O)c2c1nc(NCc1ccccc1)n2CCCc1ccccc1
-2%	O=c1cc(Cc2ccccc2)[nH]c(=S)[nH]1
-14%	N#CC1=C(N)Oc2n[nH]c(-c3cccs3)c2C1c1ccsc1 (stereo not given)
-5%	Cc1ccc(NS(=O)(=O)c2cc(C(=O)Nc3cccc(N(C)S(C)(=O)=O)c3)ccc2C)c(C)c1
-28%	CCOc1ccc2nc(NC(=O)CSc3nnnn3C3CCCCC3)sc2c1
-15%	CCn1c(COc2ccc3c(c2)OCO3)nnc1SCC(=O)O
?	O=C(Oc1ccccc1)N1CCC2(CC1)CN(c1ncccn1)C2
-1%	CCOC(=O)N1CCN(Cc2ccccc2F)CC1
7.9µM*	Nn1c(Cc2cccc3ccccc23)nnc1SCc1c(Cl)cccc1Cl
3%	Cc1cc(C)c(S(=O)(=O)N2CCC(C(N)=O)CC2)cc1C
-25%	O=C(/C=C1\NC2(CCCC2)Cc2ccccc21)C(=O)N/N=C/c1ccc(O)c(O)c1
-26%	COc1cc(NC(=O)CN2c3cccc4cccc(c34)S2(=O)=O)cc(OC)c1OC
2%	CC(C)(C)NC(=O)Cn1c(SCC(=O)NCc2cccs2)nc2ccccc21

Not all compounds are listed; rates above refer to the full screens.
